Assay outcomes from PubChem BioAssay.
rRNA inh HTS = reduced GFP signal of wild-type E. coli, primary screen, bacterial rRNA inhibitor project, GFP/RFP fluorescence, OD600, single point | E. coli WT GFP vs humanized-ribosome RFP mutants, 24 h; stronger effect = lower value; DMSO median 0, no signal -100 | GFP signal change (wild-type ribosome), % (concentration not given with the values) | hit rate 1.6% among 350,000;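 active = significant combined selectivity score with lowered wild-type GFP, culture density cut under 30%, mutant RFP and density less affected; inactive = any of these conditions unmet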; also: one replicate is shown; some compounds called inactive have numbers as strong as hits
FGF22 binding = binders of human FGF22 protein, primary screen, FGF22 synaptogenesis inhibitor project, biophysical, thermal shift, single point; recombinant FGF22 thermal shift, SYPRO orange fluorescence; percent of sucrose octasulfate shift, DMSO zero; calls only at 9.99 µM; hit rate 1.5% among 340,000; AID 651658, 2012;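 active = melting point raised past a set limit in the mean and every replicate; three in four hits are not shown here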
Target sequence (Q9HCT0 whole entry, looked up): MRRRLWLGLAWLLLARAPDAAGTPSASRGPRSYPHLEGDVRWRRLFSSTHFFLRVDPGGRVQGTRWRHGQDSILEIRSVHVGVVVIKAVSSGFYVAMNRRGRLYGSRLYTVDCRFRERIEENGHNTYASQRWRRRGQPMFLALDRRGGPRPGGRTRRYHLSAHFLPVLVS
Calb FLC = C. albicans growth inhibition with fluconazole, primary screen, CaCi-2 strain, Alamar Blue fluorescence | growth inhibition, % (no concentration beside the values) | C. albicans CaCi-2 (fluconazole-resistant clinical isolate) + fluconazole, 48 h | hit rate 0.57% among 300,000;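 active = most replicates above 75%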;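 also: all wells also contain fluconazole at 8 µg/ml as a sub-toxic cotreatment; 0% = median of DMSO wells and 100% = median of geldanamycin control wells; wells of about 8 µL received 7.5 nL stock; the first replicate is given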
ALR H2O2 inh = inhibitors of human ALR sulfhydryl oxidase, primary screen, biochemical, H2O2 detection, HRP-luminol luminescence, single point; FAD-linked sulfhydryl oxidase ALR (Homo sapiens), P55789; purified ALR, DTT oxidation; inhibition, % (no concentration beside the values); hit rate 3.8% among 290,000;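 active = mean and each replicate at 75% or more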;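 also: stock transfer was 7.5 nL into about 7.5 µL; 0% = neutral wells and 100% = wells with inactivated enzyme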
Target sequence (P55789 whole entry, looked up): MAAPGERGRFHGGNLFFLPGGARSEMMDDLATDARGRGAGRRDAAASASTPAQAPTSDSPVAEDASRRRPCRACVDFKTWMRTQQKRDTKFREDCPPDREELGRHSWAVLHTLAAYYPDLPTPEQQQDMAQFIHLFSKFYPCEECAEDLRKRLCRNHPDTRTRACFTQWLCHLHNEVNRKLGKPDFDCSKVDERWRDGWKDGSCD
MLL AF4-AF9 inh = inhibitors of AF4 peptide binding to AF9, primary screen, biochemical, AlphaScreen, biotin-AF4 peptide, FLAG-AF9, single point; hit rate 0.47% among 350,000; inhibition, % at 10 µM; AID 651704, 2012; Protein AF-9 (Homo sapiens), P42568;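 active = every replicate reaching a set inhibition limit, whatever the replicate mean, cut at about 25% in these data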;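 also: 0% = plate neutral control median and 100% = total signal loss; the record names both 10 and 1 µM as test concentration; the first replicate is given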
Target sequence (P42568 whole entry, looked up): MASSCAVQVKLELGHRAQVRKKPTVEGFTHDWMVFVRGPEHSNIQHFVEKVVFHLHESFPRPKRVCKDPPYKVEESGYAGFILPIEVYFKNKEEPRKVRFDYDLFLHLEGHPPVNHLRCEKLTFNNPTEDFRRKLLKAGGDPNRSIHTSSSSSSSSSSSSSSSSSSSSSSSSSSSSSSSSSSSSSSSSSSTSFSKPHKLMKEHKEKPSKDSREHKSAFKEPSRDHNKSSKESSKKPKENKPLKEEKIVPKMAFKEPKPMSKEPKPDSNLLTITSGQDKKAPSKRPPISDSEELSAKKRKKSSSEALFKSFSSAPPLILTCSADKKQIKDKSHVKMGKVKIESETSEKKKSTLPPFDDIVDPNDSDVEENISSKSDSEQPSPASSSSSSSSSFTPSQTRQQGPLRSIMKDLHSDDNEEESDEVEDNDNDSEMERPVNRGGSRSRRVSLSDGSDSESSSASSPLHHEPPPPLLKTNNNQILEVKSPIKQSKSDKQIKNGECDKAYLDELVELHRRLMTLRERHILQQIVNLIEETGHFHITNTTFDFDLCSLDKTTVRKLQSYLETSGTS
RanGTP-Impb inh = inhibitors of RanGTP-importin-beta interaction, primary screen, biochemical, FRET, CFP-Ran, YFP-importin-beta, homogeneous. Ran GTPase (GTP-bound) - importin-beta complex. cell-free CFP-Ran/YFP-importin-beta FRET ratio. inhibition, % (test concentration not listed). hit rate 1.1% among 300,000. AID 2216, 2009;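 active = most replicates above 15%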;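 also: 0% = DMSO wells and 100% = Ran loaded with GDP instead of GTP; wells of about 40 µL received 100 nL stock; the first replicate is given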
T cruzi repl = inhibitors of intracellular T. cruzi growth, primary screen, luminescence, NIH3T3 host cells | T. cruzi beta-gal in NIH3T3, 90 h | inhibition, % (concentration not given with the values) | hit rate 1.4% among 300,000 | AID 1885, 2009;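 active = mean inhibition across valid replicates above about 55%, limit read from the data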;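 also: signal also drops with host cell toxicity which is not excluded here; 0% = plate median of DMSO wells and 100% = zero luminescence signal; higher percent means less beta-gal luminescence so fewer parasites; stock transfer was 50 nL into about 50 µL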
Beta apoptosis = inhibitors of cytokine-induced beta cell apoptosis, primary screen, luminescence. INS-1E cytokine-induced death, ATP luminescence, 48 h; percent of positive-control rescue, neutral wells zero. protection from apoptosis, % (test concentration not listed). hit rate 0.8% among 300,000. AID 435005, 2010;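 active = all replicates at 75% or more, or half of them and the mean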;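 also: 0% = cytokine-treated negative control wells and 100% = positive control rescue; higher means more ATP so stronger rescue from cytokine killing; wells of about 40 µL received 100 nL stock; the first replicate is given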
rRNA inh HTS OD600 = also measured in rRNA inh HTS; calls as there; OD600 change, %; measured here: OD600 growth;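 optical density of the mix in the first replicate; 0 = DMSO median and -100 = no signal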
rRNA inh HTS RFP = second read-out of rRNA inh HTS, no call of its own (marks repeat the call); RFP signal change, %; measured here: RFP humanized mutant strains;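 first replicate; 0 = DMSO median and -100 = no signal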
* = called active by the depositor; i = inactive; . = no result given. An excerpt; the hit share may differ from the screen's.

SMILES	rRNA inh HTS	rRNA inh HTS OD600	rRNA inh HTS RFP	FGF22 binding	Calb FLC	ALR H2O2 inh	MLL AF4-AF9 inh	RanGTP-Impb inh	T cruzi repl	Beta apoptosis
CC1CCN(c2ccc(NC(=S)NC(=O)c3ccco3)cc2)CC1	.	.	.	.	-6	54	.	2.2	24	8
CS(=O)(=O)N(CC(=O)N1CCCCCC1)c1ccc(Cl)cc1	11	2	6.9	i	3	-7	-1.3	4.3	-5	-13
COC(=O)CSc1nc2sc3c(c2c(=O)[nH]1)CCC3	-2	-2	-1.5	i	-5	5	4.8	0.8	-10	-7
COc1ccc(OC)c(C(=O)COC(=O)C2CC3CCCC(C2)C3=O)c1 (stereo not drawn)	.	.	.	.	-3	-1	.	6.4	3	-8
Cc1cc(=O)oc2cc(OCC(=O)c3ccccc3)ccc12	3	11	3.2	i	18	-16	-2.0	3.3	-16	0
Cc1cc(NC(=O)c2ccc3c(c2)OCO3)ccc1NC(=O)c1ccco1	.	.	.	.	-3	-2	.	0.8	-9	4
CCCC(C)NC(=O)C1CCN(C(=O)C2CC(=O)N(c3ccc(C)cc3)C2)CC1 (stereo not drawn)	3	8	-1.4	i	-13	0	-6.1	-3.0	-6	0
COc1ccc(CCNC(=O)c2ccc(Cl)cc2Cl)cc1	.	.	.	.	11	-3	.	1.8	7	0
CC(C)(C)c1ccc(C(=O)NNc2ncccc2-n2cccc2)cc1	-22	-17	-2.2	i	-3	49	7.9	-1.3	0	10
O=S(=O)(Nc1ccccc1Cl)c1ccc2[nH]c(=S)oc2c1	0	-18	2.5	i	-2	57	-1.5	2.0	9	6
CN(C)S(=O)(=O)c1cccc(NC(=S)N/N=C/c2cc(Br)ccc2O)c1	-48	-69	-18	i	81*	.	16	4.9	57*	94*
COC(=O)c1ccccc1NC(=O)Cn1c(CCC(=O)O)ccc1-c1cccs1	.	.	.	.	15	32	.	3.4	-9	-7
Cc1cccc(C(=O)Nc2cc(Cl)ccc2-n2cncn2)c1[N+](=O)[O-]	3	10	-0.2	i	37	10	-47	0.5	4	0
Cn1c(=O)cc(OCCCC(=O)NC2CCCC2)c2ccccc21	.	.	.	.	-25	-11	.	3.5	5	-29
O=C(CSCc1ccc(Cl)cc1)NCC1CCCO1 (stereo not drawn)	.	.	.	.	-4	.	.	3.7	7	-3
Nc1ccc(-c2nnc(-c3ccc(-c4ccccc4)cc3)o2)cc1	.	.	.	.	4	-1	.	0.6	1	3
COc1ccc(-n2nc3c(c2NC(=O)C2CC2)CS(=O)(=O)C3)cc1	6	12	1.8	i	5	-2	1.5	-2.2	7	.
O=C(NC1CCCc2ccccc21)c1cc(Cl)ccn1 (stereo not drawn)	2	-18	-3.9	i	-9	-6	-18	1.0	-3	0
Cc1cc2ncc(C(=O)N=CN(C)C)cn2n1	25	15	1.7	i	1	-4	-2.2	1.2	-2	-1
Cc1ccc(CSc2ccc(-c3ccc4c(c3)OCO4)nn2)cc1	16	5	-4.5	i	8	4	-91	-1.0	2	-8
COc1ccc(NC(=O)COC(=O)CCc2ccccc2)c(OC)c1	9	0	-2.6	i	1	0	-5.0	-9.9	-6	-1
CCOc1ccc(-n2c(C)c(C(C)=O)c3cc(OCC(N)=O)ccc32)cc1	-3	-8	-3.3	i	-3	2	-1.5	-5.0	11	4
COc1cc(/C=N/NC(=O)c2cc(C)oc2C)ccc1O	2	3	-1.0	i	0	99*	-0.5	24*	-17	-1
COc1ccccc1OCC(=O)Nc1nc2c(s1)CCCC2	-36	-56	-11	i	-7	29	1.4	6.3	14	.
CS/C(=C\[N+](=O)[O-])Nc1ccc(F)cc1	.	.	.	.	-3	20	.	1.5	-14	1
COc1ccc(NC(=O)C2CCN(C(=O)c3ccc(OC)cc3)CC2)cc1	.	.	.	.	0	-7	.	-3.9	-3	-2
COc1cc(C(C2C(=O)CC(C)(C)CC2=O)C2C(=O)CC(C)(C)CC2=O)ccc1OC(C)=O	-5	-3	-2.1	i	3	22	1.7	0.5	26	0
COc1ccccc1CNC(=O)c1cc(-c2ccccc2)nn1CC1CC(c2cccnc2)=NO1 (stereo not drawn)	-10	-20	5.0	i	7	-11	-9.1	1.5	34	-9
CCS(=O)(=O)c1ccc2c(c1)N(S(=O)(=O)c1cccs1)CC(C(=O)O)O2 (stereo not drawn)	10	11	0.6	i	-3	2	0.0	-1.4	-7	0
O=C1C(NS(=O)(=O)c2cccs2)=C(N2CCN(c3cccc(C(F)(F)F)c3)CC2)C(=O)c2ccccc21	.	.	.	.	20	-6	.	-8.2	29	2
Cc1cccc(OCCn2ccnc2)c1	4	15	17	i	3	-3	-2.4	0.6	0	-8
CCCCNC(=O)OCCSCCS(=O)(=O)c1ccc(Cl)cc1	12	14	0.2	i	14	0	-11	0.9	6	-4
O=C(NNc1c2ccccc2nc2ccccc12)C12CC3CC(CC(C3)C1)C2	9	-5	-1.6	i	-12	.	-0.7	24*	43	13
CCOC(=O)Cc1csc(NC(=O)c2cccc(Cl)c2)n1	.	.	.	i	-8	-9	1.4	-9.7	8	5
CCn1c(SCC(=O)Nc2ccc(Br)cc2)nc2sc3c(c2c1=O)CCN(C)C3	-59	-80	-19	i	-5	99*	8.6	-2.8	7	2
CCCCOc1ccc(C(=O)N/N=C/c2ccc(OCCN3CCCCC3)c(OC)c2)cc1	-19	-26	14	.	29	-7	5.3	-0.5	34	16
COc1cccc(C(=O)Nc2ccc(-c3nc4ccccc4o3)c(O)c2)c1	.	.	.	.	0	-8	.	2.0	19	10
O=C(c1cc2ccccc2oc1=O)N(Cc1ccco1)CC1CCCO1 (stereo not drawn)	.	.	.	.	7	2	.	1.7	-20	.
CC(=O)Nc1ccc(NC(=O)c2ccc(CN3CCc4ccccc4C3)cc2)cc1	-1	6	-6.2	i	7	-7	3.8	1.0	-6	-2
COC(=O)Nc1ccc(S(=O)(=O)N2CCC(C(=O)N3CCCC(C)C3)CC2)cc1 (stereo not drawn)	5	2	-1.2	i	-10	-20	-1.3	2.6	-8	-3

Overlap with the part before: 2 compounds, followed by the next part.
SMILES	rRNA inh HTS	rRNA inh HTS OD600	rRNA inh HTS RFP	FGF22 binding	Calb FLC	ALR H2O2 inh	MLL AF4-AF9 inh	RanGTP-Impb inh	T cruzi repl	Beta apoptosis
CC(=O)Nc1ccc(NC(=O)c2ccc(CN3CCc4ccccc4C3)cc2)cc1	-1	6	-6.2	i	7	-7	3.8	1.0	-6	-2
COC(=O)Nc1ccc(S(=O)(=O)N2CCC(C(=O)N3CCCC(C)C3)CC2)cc1 (stereo not drawn)	5	2	-1.2	i	-10	-20	-1.3	2.6	-8	-3
CCNc1nc(Oc2ccc(Cl)cc2Cl)cc(C(F)(F)F)n1	.	.	.	.	-2	5	.	0.0	5	7
COC(=O)C(NC(=O)c1ccccc1Cl)(Nc1ncc(S(=O)(=O)c2ccc([N+](=O)[O-])cc2)s1)C(F)(F)F (stereo not drawn)	.	.	.	.	-15	-43	.	1.4	40	5
COc1ccc(CNC(=O)CC(NC(N)=O)c2ccccc2Cl)cc1OC (stereo not drawn)	13	14	-0.5	i	-4	.	-0.5	-1.4	-13	1
C=CCn1c(SCC(=O)Nc2ccc(F)cc2F)nc2c([nH]c3ccccc32)c1=O	-1	0	0.2	i	.	0	-0.6	.	-4	-2
CN(Cc1cccc(-n2cccn2)c1)C(=O)CCc1nnc(C2CCCCC2)o1	-7	-3	2.1	i	-1	4	-1.5	3.8	6	1
COc1cc2nc(CCc3ccccc3)oc(=O)c2cc1OC	-7	-6	-1.9	i	-3	3	-5.1	6.3	-12	-5
Cc1ccccc1C1=NC(c2ccc(F)cc2F)ON1 (stereo not drawn)	.	.	.	.	-16	-9	.	-2.0	-6	-2
O=C(NCc1cccnc1)c1ccc(CS(=O)(=O)c2ccc(Br)cc2)o1	0	5	0.5	i	-4	-4	-1.8	1.2	-13	1
O=c1[nH]c(CCl)nc2cc(-c3ccc(F)cc3)sc12	-9	-15	-2.6	i	4	-15	-0.7	0.4	-20	18
C=CCNC(=O)COc1ccc(Br)cc1Cl	.	.	.	.	-12	0	.	-3.5	9	-6
COc1ccc(-n2cnc3ccccc32)cc1	-8	-19	2.3	i	-17	.	1.3	-4.0	-2	-9
O=C(NCc1ccccc1Br)c1ccncc1	1	13	0.5	i	-9	2	-1.6	-4.0	-5	-17
O=C(Nc1ccc2c(c1)OCO2)C1CCCCC1	.	.	.	i	-3	-3	-0.4	-1.2	9	-3
CCN(CC)CC(=O)Nc1ccccc1SCC(=O)Nc1ccsc1C(=O)OC	-21	-23	-3.9	i	6	0	-6.9	-0.8	1	-11
COc1ccc(NC(=O)Nc2nnc(N3CCCCC3C)s2)cc1OC (stereo not drawn)	-5	2	-2.5	i	-2	-18	-1.7	-0.2	5	.
CC1(C)Cc2c(c(N3CCOCC3)nc3sc4c(=O)[nH]cnc4c23)CS1	.	.	.	.	-1	-16	.	-0.5	-4	8
CC(/C=N/NC(=O)c1ccncc1)=C\c1ccco1	24	8	2.0	i	7	.	2.8	-1.9	1	-4
CCC(=O)Nc1ccc(NC(=O)C23CC4CC(CC(C4)C2)C3)cn1	.	.	.	.	-27	-26	.	6.0	-15	-3
CCn1cc(C(=O)NCCN(C)CCc2ccccc2)c(=O)c2cc(S(=O)(=O)N(C)C)ccc21	.	.	.	.	-29	-1	.	-4.2	36	-1
O=S(=O)(c1ccccc1)c1nc(-c2ccccc2)oc1NCc1cccnc1	.	.	.	.	5	6	.	0.7	-1	0
O=C(COc1coc(CN2CCc3ccccc3C2)cc1=O)Nc1cccc(Cl)c1	-1	1	3.2	i	8	1	0.4	2.1	-3	.
Cc1ccc(-c2ccc3c(c2)S(=O)(=O)c2ccccc2C3=O)cc1	.	.	.	.	-1	-34	.	2.0	-22	-2
C1=C[C@@H]2CCN(Cc3ccccc3)Cc3cccc(c32)C1	3	2	3.7	i	.	-12	-6.6	.	.	-2
O=C(COC(=O)COc1ccccc1)Nc1ccc(S(=O)(=O)N2CCOCC2)cc1	9	5	2.1	i	5	-17	-3.0	3.5	-5	1
COc1ccccc1NS(=O)(=O)c1cccc(NS(=O)(=O)c2ccc(Cl)c(C(=O)O)c2)c1	6	6	0.4	i	.	-3	3.8	.	.	-9
FC(F)(F)c1nc2ccccc2n2c(-c3ccc(Cl)cc3)nnc12	.	.	.	.	-5	-2	.	-3.0	0	101*
Cc1ccc(/C(N)=N/OC(=O)CCCc2ccccc2)cc1	-1	1	-2.6	i	-3	-7	-3.6	3.2	2	.
COc1ccccc1CCNC(=O)c1cc(COc2cccc(C(F)(F)F)c2)on1	-34*	-30*	-4.4*	i	-2	-17	-1.1	-0.1	14	-8
CCN(CC)CC(O)Cn1c2ccccc2c2ccccc21 (stereo not drawn)	.	.	.	.	-7	-10	.	1.1	4	-6
CC(C)(Oc1ccc(Cl)cc1)C(=O)NCc1ccco1	.	.	.	.	.	51	.	3.4	10	-3
Clc1ccccc1-c1nnc2sc(-c3ccco3)nn12	.	.	.	.	16	3	.	-1.2	0	-1
